Assay outcomes deposited in PubChem by National Center for Advancing Translational Sciences (NCATS).
Cruzain Triton: inhibitors of Trypanosoma cruzi cruzain with detergent | purified cruzain, Z-FR-AMC fluorescence, 0.01% Triton | Potency, µM, for the others: max response, negative = inhibition, most hits filed as inhibitors | 0.43% of 200,000 active;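 also: plate controls were neutral wells for no effect and buffer without enzyme for full effect; nearly all actives have a fitted effect of over 40% in size; top concentration of the series not given in the record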
Target sequence (P25779 123-467 limits assumed): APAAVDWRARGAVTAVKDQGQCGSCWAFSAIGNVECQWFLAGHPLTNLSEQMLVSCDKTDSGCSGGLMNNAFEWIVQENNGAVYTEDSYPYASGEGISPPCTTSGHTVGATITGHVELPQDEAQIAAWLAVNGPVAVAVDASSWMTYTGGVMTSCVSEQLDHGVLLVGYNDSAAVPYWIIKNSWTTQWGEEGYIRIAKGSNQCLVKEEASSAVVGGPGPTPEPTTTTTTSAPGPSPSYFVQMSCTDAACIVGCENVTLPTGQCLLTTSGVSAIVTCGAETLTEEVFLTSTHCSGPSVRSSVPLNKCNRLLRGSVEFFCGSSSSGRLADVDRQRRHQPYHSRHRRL
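Sodium acetate buffer (100 mM, pH 5.5) containing 5 mM DTT and 0.01% Triton X-100 hosted 1.5 nM cruzain and test compound for 15 min at room temperature. Cleavage of 2 uM Z-FR-AMC was then tracked by fluorescence.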
Marburg entry inh: Marburg virus entry inhibition; Marburg virus pseudotyped entry inhibition, cell reporter; control for the full effect not named in the record; about a third of the inactives were read at about 46 µM; Potency, µM (doses to about 37.8 µM), for inactives: top-dose activity change, negative = inhibition, hits mostly inhibitors; 1.8% of 300,000 active; active = well fitted inhibition curve with a large enough effect; inconclusive = small, poorly fitted or top-dose-only effect, or effect the other way; inactive = flat fitted curve, though single readings scatter; tested in HEK293 cells; about a fifth of its hits are not listed in these tables; also: % is scaled to controls: 0 for no effect and ±100 for the full control effect; luciferase read-out
NS1 inh: blocks influenza NS1 protein function; S. cerevisiae slowed by influenza A NS1, growth recovery by OD600; Potency, µM (series often up to 46.1 µM), inactives show at the highest dose activity, positive = more growth; 0.4% of 270,000 active; AID 2326; active means well fitted rising curve with a large enough effect; inconclusive means small, poorly fitted or top-dose-only effect; inactive means no such curve, though single readings can be large or run the other way; also: nearly all actives have a fitted effect of over 50% in size
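Recovery from NS1-induced slow growth read by OD600 in budding yeast switched to galactose assay medium (pH 6.0, -URA) at 1:100 dilution. Compound 23 nl per well; the matching strain lacking NS1 serves as control.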
StopGo reporter: lowers the luciferase signal of an FMDV 2A StopGo reporter. human cells with a luciferase reporter of 2A StopGo recoding; control for the full effect not named in the record. Potency, µM (top dose mostly 57.9 µM), without a hit: top-dose signal change, negative = less light. 1.2% of 410,000 active; active = well fitted falling curve with a large enough effect; inconclusive = small, poorly fitted or top-dose-only effect; inactive = no such curve, though single readings can be large or run the other way; tested in HEK293T cells; also: % is scaled to controls: 0 for no effect and ±100 for the full control effect; nearly all actives have a fitted effect of over 45% in size; luciferase light after 4 h
SARS PLpro yeast: inhibitors of SARS-CoV papain-like protease in yeast; 0.19% of 330,000 active; S. cerevisiae expressing SARS-CoV PLpro, growth rescue; control for the full effect not named in the record; Potency, µM (doses to about 32.9 µM), inactives show at the highest dose activity, positive = growth rescue; active means well fitted rising curve with a large enough effect; inconclusive means small, poorly fitted or top-dose-only effect; inactive means no such curve, though single readings can be large or run the other way; also: 0% is about no effect; nearly all actives have a fitted effect of over 55% in size; growth read by luminescence after 48 h
RE007 growth inh: less growth of the S. pombe RE007 Vpr strain. 0.21% of 360,000 active. S. pombe RE007 Vpr strain, BacTiter-Glo ATP luminescence, 24 h; control for the full effect not named in the record. AID 651644. Potency, µM (titrated, usually from 92.2 µM), for inactives: at the top dose activity change, negative = less growth; active = well fitted falling curve with a large enough effect; inconclusive = small, poorly fitted or top-dose-only effect; inactive = no such curve, though single readings can be large or run the other way;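 also: % is scaled to controls: 0 for no effect and ±100 for the full control effect; nearly all actives have a fitted effect of over 50% in size; the assay follows cell death caused by Vpr and the record does not say whether a fall means rescue or toxicity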
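Fission yeast RE007 carrying one integrated HIV-1 vpr copy, seeded at OD 0.01 in PMG+AL medium with 23 nL pinned compound. Grown 24 h at 30 degrees; viability read by BacTiter-Glo luminescence after 5 min.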
Cruzain noTriton: cruzain (T. cruzi) inhibition without detergent; P25779; purified cruzain, Z-FR-AMC fluorescence, no detergent; Potency, µM, for the others: max response, negative = inhibition, usual class: inhibitors; 2.3% of 200,000 active; AID 1476;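 also: plate controls were enzyme without inhibitor for no effect and buffer without enzyme for full effect; nearly all actives have a fitted effect of over 40% in size; top concentration of the series not given in the record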
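Detergent-free condition (0.00005% Triton X-100) in acetate buffer pH 5.5 with DTT. 1.5 nM enzyme and compound were pre-mixed 15 min, then 2 uM Z-FR-AMC substrate added; reaction progress from fluorescence change between first and third reads (60 s).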
LASV entry inh: inhibitors of Lassa virus binding or cell entry; 1.2% of 300,000 active; AID 540256; Potency, µM (top dose mostly 37.9 µM), for inactives: at the top dose activity change, negative = inhibition, usual class: inhibitors; Lassa virus pseudotype entry inhibition, cell reporter; control for the full effect not named in the record; active means well fitted inhibition curve with a large enough effect; inconclusive means small, poorly fitted or top-dose-only effect, or effect the other way; inactive means flat fitted curve, though single readings scatter; tested in HEK293 cells; also: % is scaled to controls: 0 for no effect and ±100 for the full control effect; nearly all actives have a fitted effect of over 50% in size; luciferase read-out
* = called active by the depositor; u = inconclusive; x = no result given; & = joins results of further samples; [ ] = remark or other dose. Unless noted, calls follow the shape of the dose curve; as a rule, active = well fitted curve in the direction sought with a large enough effect; inconclusive = small, poorly fitted or top-dose-only effect, or another doubt; inactive = no such curve, though single readings can be large; an effect the other way counts as inactive or inconclusive. Potency is read from the fitted curve at half-maximal effect.

SMILES | Cruzain Triton | Marburg entry inh | NS1 inh | StopGo reporter | SARS PLpro yeast | RE007 growth inh | Cruzain noTriton | LASV entry inh
COc1ccc(N(Cc2cccs2)C(=O)c2ccccc2C)cc1 | -6.5% | u | x | u | x | x | -9% | -11%[46.1 µM]
CC(=O)Nc1cccc(C(=O)N/N=C/c2c[nH]c3ccccc23)c1 | x | u | 2% | 37%[activator] | -2% | 12% | x | 6%
CC(CNC(=O)c1ccc(Nc2nc3ccccc3n3nnnc23)cc1)c1ccccc1 (stereo not drawn) | -2.2% | -13%[46.1 µM] | x | -19% | x | x | -6% | 18%[46.1 µM]
COC(=O)/C(C#N)=C/c1cc(C)sc1C | x | -4%[14.2 µM] | -1% | -13% | 0% | 0% | x | 2%
N=c1sccn1CC(=O)Nc1cccc(S(=O)(=O)N2CCCCCC2)c1 | x | u | x | -17% | 0% | -1% | x | -11%
c1ccc(OCCOc2ncnc3ccccc23)cc1 | -0.6% | 1% | -14% | 57%[activator] | 0% | 14% | 1% | u
O=C(NC(=S)Nc1ccccc1Br)C1CCC1 | x | -16%[46.1 µM] | -13% | -1% | 2% | -8% | x | u
CCN(CC)CC#CC(O)(c1ccccc1)c1ccccc1 | x | u | 4% | -21% | 0% | 16% | x | -9%
COc1ccc(S(=O)(=O)c2cnc3ccc(OC)cc3c2N2CCC3(CC2)OCCO3)cc1 | -6.7% | u | 8% | u | -20% | 2% | 30% | u
Cc1ccccc1NC(=O)C(C)OC(=O)CNS(=O)(=O)c1ccc(C#N)cc1 (stereo not drawn) | x | -5% | x | -8% | u | -1% | x | -1%
CCS(=O)(=O)/N=C(\N)c1ccccc1 | -3.9% | -1% | 2% | x | 6% | -4% | 6% | -4%
Cc1ccc(NC(=O)CN(C)C(=O)c2ccc(Cl)c([N+](=O)[O-])c2)cc1 | -6.9% | -1% | -1% | -21% | -1% | 1% | -4% | 1%

Quoted at random: two compounds from above, in no set order.
SMILES | Cruzain Triton | Marburg entry inh | NS1 inh | StopGo reporter | SARS PLpro yeast | RE007 growth inh | Cruzain noTriton | LASV entry inh
Cc1ccc(NC(=O)CN(C)C(=O)c2ccc(Cl)c([N+](=O)[O-])c2)cc1 | -6.9% | -1% | -1% | -21% | -1% | 1% | -4% | 1%
COC(=O)/C(C#N)=C/c1cc(C)sc1C | x | -4%[14.2 µM] | -1% | -13% | 0% | 0% | x | 2%

Continuation:
SMILES | Cruzain Triton | Marburg entry inh | NS1 inh | StopGo reporter | SARS PLpro yeast | RE007 growth inh | Cruzain noTriton | LASV entry inh
C=CCn1c(SCC(=O)Nc2ccc(C(=O)OCC)cc2)nnc1-c1cccs1 | -3.6% | -3% | 1% | -11% | -1% | 20% | -4% | -13%
C/C(N)=C(/C#N)C(=O)CSc1nnc(Nc2cccc(C)c2C)s1 | -6.5% | 12%[46.1 µM] | 4% | 36%&20%[activator] | 2% | 4%&-2% | -6% | -15%[46.1 µM]
O=C(N[C@@H](Cc1ccc(Br)cc1)C(=O)O)OCC1c2ccccc2-c2ccccc21 | x | x | 6% | -21% | 3% | -15% | x | x
CCN1CCN(C(=O)CS(=O)(=O)Cc2nc(-c3cccc(OC)c3)oc2C)CC1 | x | x | -2% | -18% | -4% | 3% | x | x
CC1COC2C(O1)N(S(C)(=O)=O)CCN2S(C)(=O)=O (stereo not drawn) | 2.9% | 14% | -7% | -4% | 7% | 8% | 8% | 1%
O=C(c1ccccc1)c1ccc(N2CCN(C(=O)c3cccc(F)c3F)CC2)c(F)c1 | x | x | -5% | -67% | 6.3µM* | -15% | x | x
Cn1c2ccccc2c2ncn(Cc3ccco3)c(=O)c21 | -8.8% | 8% | -7% | 3% | -1% | 7% | -7% | -4%
COc1ccccc1N1CCN(C2CC(=O)N(c3cccc(Br)c3)C2=O)CC1 (stereo not drawn) | x | u | -35% | -3% | -29% | u | x | 7%[46.1 µM]
CCOc1ccc(C2(C)CC(=O)N(C)C2=O)cc1 (stereo not drawn) | x | x | -1% | -2% | u | 7% | x | x
COc1ccc2[nH]cc(CCNC(=O)C3CCCO3)c2c1 (stereo not drawn) | x | 7% | -3% | 0% | -1% | -2% | x | 14%
O=C(NC(=S)Nc1ccc2[nH]c(=O)[nH]c2c1)c1ccccc1[N+](=O)[O-] | x | 2% | -4% | -1% | 1% | 1% | x | -11%
Cc1cc(C)c(C)c(OCCNCc2ccccc2)c1 | x | u | 0% | u | -9% | 6% | x | u
COc1ccc(CNc2nc3ccccc3n2Cc2ccc(C)cc2)cc1OC | 4.7% | u | -15% | u | 16% | 0% | 15% | u
COCCCNc1nc2c(-c3cccc(C(F)(F)F)c3)nnn2c2ccccc12 | x | x | -3% | -20% | 0% | -9% | x | x
Oc1ccc(/C=N/N2CCN(c3ccccn3)CC2)cc1 | x | x | -4% | 47%[activator] | 1% | -12% | x | x
CCc1ccc(-c2nn(CC(=O)NCc3ccccc3)c3c2cnc2ccc(C)cc23)cc1 | -0.7% | x | x | 4% | x | x | -5% | -3%[46.1 µM]
Cc1nn(-c2cc(N3CCOCC3)ccc2N)c(=O)c2ccccc12 | -0.2% | 11%&11% | 14µM* | 4% | -6% | 4% | -18% | 1%
O=C(Nc1ccc(S(=O)(=O)NC2CCCCC2)cc1)c1ccc(Br)o1 | -6.6% | -30% | -8%[9.22 µM] | 29% | -5% | -13% | 2% | u
O=C(C1CC1)N1CCc2cc(S(=O)(=O)NCCCN3CCCCC3)ccc21 | x | -1%[46.1 µM] | 3% | 50%[activator] | 6% | -6% | x | 8%[46.1 µM]
CN(C)C(=O)CSc1nnc2sc3ccccc3n12 | -1.4% | u | -2% | 6% | u | 18% | -15% | 9%
COc1ccc(N2CC(C(=O)Nc3cc(C)on3)CC2=O)cc1 (stereo not drawn) | 2.5% | -17% | -1% | x | 11% | -5% | 4% | -1%
COC(=O)c1ccc(Cn2cnc3c(cnn3-c3ccc(Cl)cc3)c2=O)o1 | -3.3% | -11%&-11% | 2%&5% | u | 30% | 2% | -2% | 3%
COc1ccccc1C(O)(C(=O)NN(C)c1ccccc1)c1ccccc1OC | -0.2% | 13% | 13% | -21% | u | -3% | 3% | 1%
CCN(Cc1nc2cc(Cl)ccc2c(=O)[nH]1)C(=O)c1nn(C)c(=O)c2ccccc12 | x | -2% | x | -25% | -7% | 11% | x | -7%
CC(Oc1ccc2c(c1)oc(=O)c1ccccc12)C(=O)NCC1CCC(C(=O)O)CC1 (stereo not drawn) | x | x | 0% | -10% | 3% | 0% | x | x
CCn1c(COc2ccc(=O)n(-c3ccccc3)n2)nnc1SCc1ccc(C)cc1 | 5.4% | -10% | 10% | -13% | -7% | 5% | 2% | u
COc1ccc(N2CC(NC(=O)N(C)CCC#N)CC2=O)cc1 (stereo not drawn) | x | 11%[46.1 µM] | x | -15% | 1% | 7% | x | 2%[46.1 µM]
Cc1ccc2oc(C(=O)NCCC3CCCCO3)c(C)c2c1 (stereo not drawn) | x | u | -38% | -7% | -3% | -9% | x | u
Cn1c(SCc2n[nH]c(=S)n2-c2ccccc2)nnc1-c1ccccc1 | 0.6% | 12% | 6% | -14% | 7% | 2% | -1% | 24%
CC(C)N1CCC(N2CCN(Cc3ccc(-c4ccc(Cl)cc4)o3)CC2CCO)CC1 (stereo not drawn) | x | 3.2µM* | -7% | -15% | 2% | 4% | x | u
CCOc1nc(C)cc(C)c1S(=O)(=O)c1ccc(Cl)cc1 | x | -7%[46.1 µM] | -8% | -4% | 0% | -10% | x | 6%[46.1 µM]
Nc1oc2ccccc2c(=O)c1C=O | -1.0% | 12% | -3% | -5% | -13% | -12% | -4% | -3%
COc1ccc(OCCNC(=O)/C=C/c2ccc([N+](=O)[O-])cc2)cc1 | -8.3% | u | -11% | -8% | 0% | -24% | 15% | 0%
CC(C)C[C@H](NC(=O)OC(C)(C)C)c1nnc(SCc2cccc(F)c2)o1 | -8.1% | 6% | -51% | u | -13% | 1% | 2% | u
COC(=O)c1sc2nc(-c3ccccc3)c3c(c2c1N)CCCC3 | 8.2% | 14% | -17% | 22% | 1% | 13% | 5% | 20%
CC(=O)c1c(C)[nH]c(C(=O)N2CCc3ccccc32)c1C | 3.3% | 0% | 0% | 0% | 10% | -8% | -1% | -4%
C/C(Cn1nc([N+](=O)[O-])cc1C)=N\NC(=O)COc1ccc(Cl)cc1Cl | -5.9% | -20% | -11% | -14% | 13% | 3% | 8% | 8%
CCOC(=O)Cn1c(=O)oc2cc(S(=O)(=O)N3CCCc4ccccc43)ccc21 | -2.0% | 0% | 10% | u | 0% | -12% | 0% | x
CCCn1c(SCC(=O)Nc2c(C)cccc2C)nnc1C(C)C | 4.1% | -26% | 0% | -20% | -1% | -13% | -1% | -15%
COc1ccccc1N1CCN(C(=O)C2CCN(S(=O)(=O)c3cccs3)CC2)CC1 | -2.0% | 0%[46.1 µM] | x | 15% | x | x | u | u
COc1cc(OC)cc(C(=O)NNC(=O)CCc2ccccc2)c1 | x | x | 0% | 7% | 1% | 0% | x | x
COC(=O)c1cccnc1NC(=S)NC(C)C | x | -10%[46.1 µM] | x | 8% | -7% | -17% | x | 1%
O=[N+]([O-])c1ccc(C(O)CN2CCN(Cc3ccccc3)CC2)cc1 (stereo not drawn) | x | u | 3% | -4% | -2% | -5% | x | 5%[46.1 µM]
CCCCN(CCCC)CCNC(=O)CN1C(=O)CSc2ccc(S(=O)(=O)N3CCCCC3)cc21 | 0.5% | x | -1% | -4%&-14% | 1% | -6% | 11% | 20%[46.1 µM]
CN1CCN(c2ccc(C(=O)c3ccc(F)cc3)cc2)CC1 | -1.9% | u | -2% | 34%[activator] | 4% | -30% | -3% | -14%
O=C(C1=C[C@@H]2[C@H]3C(=O)N(c4ccc(Cl)cc4)C(=O)[C@H]3[C@@H](C(=O)c3ccc(Cl)cc3)N2C=C1)c1ccccc1 | -5.6% | -13% | u | -1% | -7% | 1% | 7.9µM* | -9%
O=S(=O)(NCCOC12CC3CC(CC(C3)C1)C2)c1cccc2nsnc12 | -4.2% | u | -36% | -7% | -3% | -2% | -14% | -28%
